MbtI inh: inhibitors of Mycobacterium tuberculosis siderophore enzyme MbtI; P9WFX0; purified MbtI enzyme, fluorescence intensity read-out; inhibition, %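 (about 17 µg/mL by stock and volumes)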; 100,000 tested, 0.89% active; AID 493033;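 active = above 50% in both replicates, above 80% if mildly self-fluorescent; inactive = the rest, strongly fluorescent compounds included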;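 note: 0% = mean of negative and 100% = mean of positive controls; one replicate is shown; some compounds called inactive have numbers as strong as hits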
Target sequence (P9WFX0 whole entry, looked up): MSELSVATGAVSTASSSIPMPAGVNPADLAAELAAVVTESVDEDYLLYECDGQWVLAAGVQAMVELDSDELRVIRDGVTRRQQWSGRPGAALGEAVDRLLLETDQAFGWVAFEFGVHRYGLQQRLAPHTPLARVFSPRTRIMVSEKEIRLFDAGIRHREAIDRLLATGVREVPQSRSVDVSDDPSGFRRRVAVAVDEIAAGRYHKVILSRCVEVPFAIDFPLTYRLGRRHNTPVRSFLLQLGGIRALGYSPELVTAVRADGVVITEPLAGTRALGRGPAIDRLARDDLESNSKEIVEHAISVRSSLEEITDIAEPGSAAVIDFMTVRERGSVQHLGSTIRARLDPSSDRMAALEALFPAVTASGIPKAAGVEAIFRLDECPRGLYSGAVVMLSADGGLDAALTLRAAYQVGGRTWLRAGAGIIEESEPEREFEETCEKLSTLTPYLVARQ
MenB inh: blocks the Mycobacterium tuberculosis MenB enzyme; 100,000 tested, 0.43% active; P9WNP5; MenB enzyme assay, absorbance read-out; some hits fall short of the stated cut; inhibition, %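 (about 12 µg/mL by stock and volumes)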;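 active = mean of two replicates above 30%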;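 note: 0% = no compound and 100% = wells with inactive enzyme; the first replicate is given; strong numbers were not always called active; inactives centre near -10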
Target sequence (P9WNP5 whole entry, looked up): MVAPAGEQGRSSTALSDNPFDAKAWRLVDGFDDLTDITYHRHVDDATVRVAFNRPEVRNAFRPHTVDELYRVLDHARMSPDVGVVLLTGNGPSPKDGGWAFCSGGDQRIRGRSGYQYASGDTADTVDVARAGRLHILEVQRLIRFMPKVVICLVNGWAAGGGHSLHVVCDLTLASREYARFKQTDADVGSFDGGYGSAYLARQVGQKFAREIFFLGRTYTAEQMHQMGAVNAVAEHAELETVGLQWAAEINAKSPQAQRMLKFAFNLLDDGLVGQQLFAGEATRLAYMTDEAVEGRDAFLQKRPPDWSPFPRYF
PV pol inh: poliovirus RNA polymerase inhibition. P03300. poliovirus polymerase elongation, fluorescence polarization; stronger effect = lower value. % elongation, % (compound at 16.7 µg/mL). 150,000 tested, 0.66% active; in the data active = % elongation below about 90%; note: some results filed as inactive read as strong as hits
PV pol inh intensity: further read-out of PV pol inh, marked with its call; % elongation; measured here: total intensity read-out; formula for this scale not given here;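 total fluorescence in place of polarization; lower means less elongation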
* = called active by the depositor; . = no result given.

1. COc1cccc(-c2nn3c(Cc4ccccc4)nnc3s2)c1
2. CCOc1ccccc1N1CCN(C(=O)[C@@H]2CCCN2C(=O)c2cccs2)CC1
3. COc1ccccc1OCCn1c(=N)n(CCOc2ccccc2)c2ccccc21
4. CCOC(=O)CSc1nc2cc(Cl)c(Cl)cc2n1CC
5. CCC(C(=O)Nc1cccc(C(=O)NC2CC2)c1)n1nnc(-c2ccc(Cl)cc2)n1 (stereo not given)
6. Cc1c(NC(=O)COCc2cc(-c3cccs3)on2)c(=O)n(-c2ccccc2)n1C
7. Cc1cccc(S(=O)(=O)NC2CCCCC2C)c1 (stereo not given)
8. O=C(Cn1ncc2ccccc21)NC1CCCc2ccccc21 (stereo not given)
assay / compound	1	2	3	4	5	6	7	8
MbtI inh	27.2	-1.5	7.7	-10.9	1.5	3.2	4.0	14.4
MenB inh	-27.2	-21.7	-1.6	4.4	-1.4	-18.0	11.0	-3.0
PV pol inh	99.0	101.0	101.0	109.0	101.0	104.0	101.0	103.0
PV pol inh intensity	102.0	109.0	102.0	113.0	97.0	103.0	95.0	101.0

9. COc1cccc(C(=O)NNc2cc(C(F)(F)F)ccn2)c1
10. O=C(Oc1ccccc1/C=C1/N=C2CCCCCN2C1=O)c1ccccc1Cl
11. COc1ccc(OC)c(NC(=O)C2CCCNC2=O)c1 (stereo not given)
12. Cc1cc(C)c2c(n1)sc1c(=S)nc[nH]c12
13. NS(=O)(=O)c1ccc(CCNCc2ccccn2)cc1
14. Cc1ccc(-c2nc(C#N)c(NCCN3CCCCC3)o2)cc1
15. O=S(=O)(Nc1ccccc1Cl)c1ccc2nc(Nc3ccc4c(c3)CCC4)oc2c1
16. CCOC(=O)C1CCN(C2CC(=O)N(c3c(C)cccc3C)C2=O)CC1 (stereo not given)
assay / compound	9	10	11	12	13	14	15	16
MbtI inh	9.7	112.0	-3.8	66.6	-0.2	87.8	34.8	0.3
MenB inh	-17.3	-16.3	-16.2	-7.2	29.3	-4.7	-17.7	2.6
PV pol inh	103.0	102.0	103.0	102.0	103.0	100.0	97.0	105.0
PV pol inh intensity	101.0	108.0	108.0	106.0	101.0	96.0	100.0	100.0

17. CC(C)(N)COc1nonc1N
18. CCOC(=O)N1CCC(NC(=O)Cn2ncc3c2-c2cc(C)ccc2OC3)CC1
19. Cn1c(C(=O)NCCCc2ccccc2)cc2oc3ccccc3c21
20. O=C1CON(c2ccc(Cl)c(Cl)c2)C(=O)N1
21. COc1ccc(NC(=O)C2CCN(c3nc(C)nc4c3CCC4)CC2)cc1
22. O=C(O)CSc1nn(-c2ccccc2)c(=S)s1
23. Cc1cc(C)c(C(=O)/C=C(\N2CCCC2)C(F)(F)F)c(=O)[nH]1
24. COc1cc2nc(CN3CC(C)OC(C)C3)[nH]c(=O)c2cc1OC (stereo not given)
assay / compound	17	18	19	20	21	22	23	24
MbtI inh	1.5	-13.4	85.3	-197.3	11.8	0.3	12.8	7.3
MenB inh	16.2	-2.8	-23.6	-15.9	7.7	-23.4	-19.9	-3.0
PV pol inh	100.0	102.0	102.0	93.0	100.0	100.0	103.0	103.0
PV pol inh intensity	102.0	101.0	101.0	108.0	104.0	101.0	97.0	101.0

25. CCC(=O)NNc1ncnc2c1cnn2C
26. S=c1[nH]c(-c2ccccc2)cn1/N=C/c1ccc(N2CCOCC2)cc1
27. CCOC(=O)c1ccc(NC(=O)NC2CC3CCC(C2)N3C(=S)NCc2ccco2)cc1 (stereo not given)
28. Cc1csc(NC(=O)NCC2CCCC(CNC(=O)Nc3nc(C)cs3)C2)n1 (stereo not given)
29. CCOc1ccc(NC(=O)CC(C)Cc2cc(C)cc(C)c2)cc1 (stereo not given)
30. CCCN1CCC(N2CCC(O)CC2)CC1
31. Cc1ccc(C2(c3ccc(C)cc3)NC(=O)N(Cc3c(C)noc3C)C2=O)cc1
32. CCOC(=O)/C=C(\C)Nc1ccc(CC)cc1
assay / compound	25	26	27	28	29	30	31	32
MbtI inh	-4.0	6.2	11.2	-9.8	.	-12.3	2.1	8.2
MenB inh	-10.9	-15.8	-55.9	-4.2	-7.5	-22.8	-2.1	-20.9
PV pol inh	105.0	97.0	101.0	106.0	101.0	102.0	106.0	103.0
PV pol inh intensity	99.0	92.0	101.0	105.0	107.0	102.0	105.0	93.0

33. CC(=O)Oc1ccc2occ(C(=O)c3ccc(Cl)cc3)c2c1
34. N#Cc1ccc(CO/N=C(\N)c2ccccc2)cc1
35. O=C(NN=c1c(=O)c2ccccc2c1=O)c1ccncc1
36. CCOC(=O)/C=C1\CC(=O)Nc2cc(C)c(C)cc2N1
37. CCNC(=O)c1cccc(OC)c1
38. Cc1ccc(OCc2nnc(SCC(=O)Nc3ccc4c(c3)OCO4)n2C(C)C)c(C)c1
39. CCOC(=O)c1c[nH]c2cc(F)cc(F)c2c1=O
40. O=C(c1cc[n+]([O-])cc1)N1CCCCCC1
assay / compound	33	34	35	36	37	38	39	40
MbtI inh	-1.7	-1.1	1.5	81.8	.	7.1	-10.3	2.7
MenB inh	-16.2	0.7	-11.4	-2.7	-9.8	-29.8	-19.8	.
PV pol inh	100.0	105.0	58.0*	103.0	102.0	100.0	.	103.0
PV pol inh intensity	103.0	101.0	54.0*	104.0	101.0	101.0	.	99.0

41. CC(CNC(C)c1ccccc1)C(=O)O (stereo not given)
42. Cn1c(=O)c(=O)n(C)c2cc(S(=O)(=O)CCC(=O)N3CCOc4ccccc43)ccc21
43. COC(=O)c1ccc2c(c1)C(=O)N(C1CCCCC1)C2=O
44. COc1ccc(Cl)cc1NS(=O)(=O)N(C)C
45. CC(OC(=O)c1cccnc1SC(C)C(N)=O)C(N)=O (stereo not given)
46. COC(=O)C1=C(C)Nc2c(c(=O)n(C)c(=O)n2C)C1c1cccc(OCc2ccccc2)c1 (stereo not given)
47. N=C1/C(=C/c2ccc(SCc3ccccc3)o2)C(=O)N=C2SC=CN12
48. COc1ccc(-c2csc(C(C#N)=C3CCCCC3)n2)cc1
assay / compound	41	42	43	44	45	46	47	48
MbtI inh	-8.6	162.6	-6.8	0.2	6.3	-6.4	11.1	.
MenB inh	15.8	-17.4	1.1	4.2	-2.9	-20.4	-111.2	-16.5
PV pol inh	98.0	100.0	101.0	103.0	103.0	104.0	114.0	103.0
PV pol inh intensity	100.0	101.0	107.0	102.0	109.0	104.0	119.0	106.0

49. O/N=C1/C2CC3C1C14CC(C2/C1=N\O)C34 (stereo not given)
50. Cc1cc(-c2ccccn2)n[nH]c1=O
51. COC(=O)c1ccc(N2C(=O)CC(SCCc3nc4ccccc4[nH]3)C2=O)cc1 (stereo not given)
52. COc1ccccc1N=C(NO)c1nonc1N
53. O=C(COC(=O)c1cncc(Br)c1)Nc1ccccc1
54. CCN1CCN(C(=O)c2cccs2)CC1
55. CC1CCCCN1C(=O)Nc1cccc(C(F)(F)F)c1 (stereo not given)
56. Cc1cccc(N2C(N)=NC(N)=NC23CCCCC3)c1
assay / compound	49	50	51	52	53	54	55	56
MbtI inh	1.5	-8.2	35.8	.	-10.2	2.6	.	1.9
MenB inh	-7.7	-1.1	-7.6	-6.7	.	-52.4	-4.2	-27.3
PV pol inh	101.0	101.0	100.0	103.0	104.0	103.0	97.0	101.0
PV pol inh intensity	95.0	109.0	102.0	109.0	116.0	100.0	90.0	103.0

57. O=C(Cn1nnc(-c2ccncc2)n1)NCCc1ccccc1
58. CCCCCC(=O)Nc1cc2c(cc1C(=O)O)OCCO2
59. COc1ccc(C)cc1NC(=O)CSC1CCCC1
60. O=C(O)Cn1cnc2ccccc2c1=O
61. O=C(Nc1ccc(N2CCN(C(=O)c3ccccc3)CC2)cc1)c1ccccc1
62. Cc1ccc2c(CSc3cccc[n+]3[O-])cc(=O)oc2c1
63. O=C(O)CSc1c2c(nc3cc(C(=O)NCc4ccc(F)cc4)ccc13)CCCC2
64. COc1cc2c(cc1NC(=O)CSc1nnc(Cc3cccs3)n1Cc1ccco1)oc1ccccc12
assay / compound	57	58	59	60	61	62	63	64
MbtI inh	-4.2	6.8	-9.1	9.6	-20.6	75.8	-1.4	5.0
MenB inh	8.8	7.0	-25.2	-24.8	-13.8	-12.7	-13.1	-9.6
PV pol inh	102.0	101.0	113.0	99.0	102.0	101.0	103.0	99.0
PV pol inh intensity	104.0	99.0	118.0	97.0	104.0	101.0	107.0	106.0

65. O=C1N=c2ccccc2=C1c1c(O)n(-c2cccc(F)c2)[nH]c1=O
66. Cc1cc(C)n(-c2ccc(C(=O)OCC(=O)NCC3CCCO3)cc2)n1 (stereo not given)
67. COc1ccc(-c2cc(C(=O)OCC(=O)NCc3ccco3)c3c(C)nn(-c4ccccc4)c3n2)cc1
68. CCc1ccc(OCCCC(=O)Oc2ccc3c(c2)oc(=O)c2ccccc23)cc1
69. Cc1nn(CCC#N)c2nc(-c3ccccc3)cc(C(F)(F)F)c12
70. CCOC(=O)c1cccc(NC(=O)CCc2nc(C3=CCN(C)CC3)no2)c1
71. Cc1ccc2c(c1)C(=O)CCCC1C(=O)N2CCN1C(=O)c1ccccc1 (stereo not given)
72. N#CCc1c(C#N)c(N)nc(SC(=N)N)c1C#N
assay / compound	65	66	67	68	69	70	71	72
MbtI inh	88.0*	-7.3	-23.6	28.3	-9.8	-0.3	.	7.2
MenB inh	-5.9	-1.4	-5.3	14.9	.	-14.3	-24.2	-133.4
PV pol inh	99.0	103.0	105.0	99.0	104.0	103.0	105.0	44.0
PV pol inh intensity	102.0	103.0	107.0	99.0	105.0	101.0	113.0	238.0

73. c1ccc(OC2OCCOC2Oc2ccccc2)cc1 (stereo not given)
74. CNc1c(NC(=O)C(C)(C)C)c(=O)oc2ccccc12
75. Cc1cnc(NC(=O)Cc2ccc(OCc3c(C)noc3C)cc2)s1
76. CSc1nnc([C@@H](N)Cc2c[nH]c3ccccc23)o1
77. CCc1ccc(-c2nc3ccccc3c(=O)o2)cc1
78. O=C(CN1C(=O)S/C(=C\c2ccc(F)cc2)C1=O)Nc1ccc(S(=O)(=O)NCc2ccco2)cc1
79. COc1cc(-c2nnc(CSc3nnc(C)s3)o2)cc(OC)c1OC
80. O=C(CCOc1ccccc1)OCc1ccccc1F
assay / compound	73	74	75	76	77	78	79	80
MbtI inh	-5.5	12.0	-9.0	-2.5	1.8	-2.3	-4.1	-9.8
MenB inh	.	5.2	-15.4	-33.4	3.6	-3.2	-35.1	-1.2
PV pol inh	103.0	101.0	104.0	103.0	100.0	101.0	102.0	111.0
PV pol inh intensity	106.0	103.0	106.0	101.0	95.0	105.0	102.0	112.0

81. COc1ccc(-c2cc(C(F)(F)F)n3nc(C(=O)NCCN4CCOCC4)c(Br)c3n2)cc1
82. CC(=O)NC(Cc1cccc(C)c1)C(=O)NC1CCN(c2nc(C)cc(C)c2C#N)CC1 (stereo not given)
83. CN1/C(=C/C=C(C#N)C#N)C=Cc2ccccc21
84. CCN1/C(=N\N)c2cccc3cccc1c23
85. COc1cccc(NC(=O)N2Cc3ccccc3Oc3ncccc32)c1
86. O=C(c1ccc(N2CCCS2(=O)=O)cc1)N1CCCC1
87. CS(=O)(=O)NCCOc1ccccc1
88. Cc1ccc(C2=NNC(C(O)C(O)C(O)C(C)O)S2)cc1 (stereo not given)
assay / compound	81	82	83	84	85	86	87	88
MbtI inh	-9.1	55.0	-7.2	11.6	3.1	-15.4	.	.
MenB inh	-63.0	-58.2	-13.3	-35.9	-2.2	-21.9	-19.5	-56.9
PV pol inh	103.0	101.0	104.0	106.0	101.0	103.0	105.0	94.0
PV pol inh intensity	116.0	100.0	110.0	119.0	102.0	102.0	103.0	96.0

89. Cc1ccc(C(=O)CC(SCc2ccco2)c2cccs2)cc1 (stereo not given)
90. COc1ccc(/C=N/c2nc3ccccc3n2CCN2CCCCC2)cc1OC
91. Cc1csc(NC(=O)/C=C\C(=O)O)n1
92. COc1ccc(NC(=O)C2CSC(C)(C)N2C=O)cc1 (stereo not given)
93. CCOC(=O)c1cccc(NC2=NC3(CCCCC3)N=C(N)N2)c1
assay / compound	89	90	91	92	93
MbtI inh	10.9	-3.6	19.1	3.7	14.5
MenB inh	-30.9	-65.0	28.7	19.1	-19.7
PV pol inh	102.0	104.0	99.0	104.0	101.0
PV pol inh intensity	109.0	105.0	102.0	95.0	103.0

4 records picked at random from the list so far, as already listed:
26. S=c1[nH]c(-c2ccccc2)cn1/N=C/c1ccc(N2CCOCC2)cc1
9. COc1cccc(C(=O)NNc2cc(C(F)(F)F)ccn2)c1
76. CSc1nnc([C@@H](N)Cc2c[nH]c3ccccc23)o1
90. COc1ccc(/C=N/c2nc3ccccc3n2CCN2CCCCC2)cc1OC
assay / compound	26	9	76	90
MbtI inh	6.2	9.7	-2.5	-3.6
MenB inh	-15.8	-17.3	-33.4	-65.0
PV pol inh	97.0	103.0	103.0	104.0
PV pol inh intensity	92.0	101.0	101.0	105.0

A different layout for two compounds above.
Values in the order – MbtI inh	MenB inh	PV pol inh	PV pol inh intensity
90. COc1ccc(/C=N/c2nc3ccccc3n2CCN2CCCCC2)cc1OC
  -3.6	-65.0	104.0	105.0
91. Cc1csc(NC(=O)/C=C\C(=O)O)n1
  19.1	28.7	99.0	102.0
